# High-throughput results deposited in PubChem by several laboratories.
# Ecoli growth – blocks Escherichia coli growth. OD600, 23 h; hits give low values. OD600 absorbance (test concentration not listed). actives 0.21% (n = 330,000). AID 1053175;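 active = OD600 absorbance below the run mean of sample wells minus 3.6 SD, in any replicate, cut at about 0.56 in these data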;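 note: stock transfer was 300 nL into about 60 µL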
# FGF22 binding – binders of recombinant human FGF22 by thermal shift; calls only at 9.99 µM; SYPRO orange fluorescence; percent of sucrose octasulfate shift, DMSO zero; Q9HCT0; actives 1.5% (n = 340,000);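 active = melting point raised past a set limit in the mean and every replicate; inconclusive = no clear call; three in four hits are not shown here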
# HNF4A DNA FP – change in binding of human HNF4 alpha to DNA; P41235; HNF4a-FITC DNA binding, fluorescence polarization, 1 h; activity change, % at 10 µM; actives 0.3% (n = 360,000); in the data active = activity change above about 30%, passing the limit was not always enough;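 note: controls were the assay level and a saturating level of protein; the project sought stronger binding though the title names inhibitors; some compounds called inactive have numbers as strong as hits; positive values seem to mean higher polarization but the record does not say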
# Target sequence (P41235 whole entry, looked up): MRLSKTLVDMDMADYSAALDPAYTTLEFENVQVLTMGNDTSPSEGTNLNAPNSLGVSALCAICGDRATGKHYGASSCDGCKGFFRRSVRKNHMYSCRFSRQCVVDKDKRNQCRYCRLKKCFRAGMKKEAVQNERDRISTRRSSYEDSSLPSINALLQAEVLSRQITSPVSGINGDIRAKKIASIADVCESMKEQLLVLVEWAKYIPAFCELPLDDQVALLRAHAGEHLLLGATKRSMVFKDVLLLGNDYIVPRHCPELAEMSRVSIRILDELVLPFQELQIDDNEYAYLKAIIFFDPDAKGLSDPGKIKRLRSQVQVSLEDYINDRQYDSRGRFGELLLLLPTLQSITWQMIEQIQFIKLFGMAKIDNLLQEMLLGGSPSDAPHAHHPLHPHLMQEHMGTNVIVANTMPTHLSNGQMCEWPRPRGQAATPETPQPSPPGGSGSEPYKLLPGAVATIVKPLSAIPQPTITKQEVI
# ALR inh – inhibitors of human sulfhydryl oxidase ALR | actives 3.8% (n = 290,000) | P55789 | AID 485317 | purified ALR, DTT oxidation, H2O2 HRP-luminol luminescence | inhibition, % (test concentration not listed);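 active = mean and each replicate at 75% or more; inconclusive = only one of the two met; inactive = neither met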;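 note: stock transfer was 7.5 nL into about 7.5 µL; 0% = neutral wells and 100% = wells with inactivated enzyme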
# Vif A3G – HIV-1 Vif–A3G interaction blockers – biochemical, TR-FRET, GST-Vif 1-94, biotin-A3G peptide, dose response retest, primary screen (AID 1117319). inhibition, %, or IC50 in µM where a hit was titrated. actives 0.57% (n = 260,000). TR-FRET GST-Vif / biotin-A3G peptide binding; higher % means a stronger effect; test concentration not given here; strong numbers were not always called active;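 active = above the screen mean plus three standard deviations and confirmed in dose response; inconclusive = results disagree or hit not tested in dose response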;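 note: Vif residues 1-94 fused to GST binding biotinylated APOBEC3G peptide 110-148; 0% = full assay without inhibitor and 100% = GST in place of GST-Vif; retest series ran down from 100 µM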
# rRNA inh HTS – inhibitors of bacterial rRNA selective over humanized ribosomes; actives 1.6% (n = 350,000); E. coli WT GFP vs humanized-ribosome RFP mutants, fluorescence, 24 h; hits give low values; DMSO median 0, no signal -100; GFP signal change (wild-type ribosome), % (no concentration beside the values);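 active = significant combined selectivity score with lowered wild-type GFP, culture density cut under 30%, mutant RFP and density less affected; inactive = any of these conditions unmet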; note: one replicate is shown; some compounds called inactive have numbers as strong as hits
# AF4-AF9 inh – blocks AF4 peptide binding to human AF9. AlphaScreen, biotin-AF4 peptide binding to FLAG-AF9. inhibition, % at 10 µM. actives 0.47% (n = 350,000). AID 651704;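 active = every replicate reaching a set inhibition limit, whatever the replicate mean, cut at about 25% in these data; inconclusive = mean inhibition reaches that limit but some replicates miss it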;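 note: 0% = plate neutral control median and 100% = total signal loss; the record names both 10 and 1 µM as test concentration; the first replicate is given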
# Target sequence (P42568 whole entry, looked up): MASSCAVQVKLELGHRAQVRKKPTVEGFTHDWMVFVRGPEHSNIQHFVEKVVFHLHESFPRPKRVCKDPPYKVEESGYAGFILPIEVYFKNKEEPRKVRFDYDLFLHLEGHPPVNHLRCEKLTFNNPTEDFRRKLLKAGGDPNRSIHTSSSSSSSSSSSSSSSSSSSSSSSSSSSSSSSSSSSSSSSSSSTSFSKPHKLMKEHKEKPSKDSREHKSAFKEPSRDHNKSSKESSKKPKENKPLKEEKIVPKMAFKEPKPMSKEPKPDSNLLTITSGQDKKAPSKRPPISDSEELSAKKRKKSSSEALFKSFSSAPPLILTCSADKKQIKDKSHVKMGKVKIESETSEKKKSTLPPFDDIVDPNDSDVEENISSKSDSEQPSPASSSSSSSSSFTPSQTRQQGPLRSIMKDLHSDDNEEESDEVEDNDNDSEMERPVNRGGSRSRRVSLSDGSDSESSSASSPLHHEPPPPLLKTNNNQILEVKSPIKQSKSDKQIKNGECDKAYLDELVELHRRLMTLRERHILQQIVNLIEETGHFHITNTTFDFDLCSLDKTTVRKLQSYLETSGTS
# rRNA inh HTS OD600 – further read-out of rRNA inh HTS, marked with its call; OD600 change, %; measured here: OD600 growth;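 optical density of the mix in the first replicate; 0 = DMSO median and -100 = no signal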
# rRNA inh HTS RFP – also measured in rRNA inh HTS; calls as there; RFP signal change, %; measured here: RFP humanized mutant strains;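 first replicate; 0 = DMSO median and -100 = no signal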
# Active calls of the source: *; i = inactive; ? = inconclusive; · = not tested or not shown. An excerpt (hit frequency here may not be typical).
SMILES,Ecoli growth,FGF22 binding,HNF4A DNA FP,ALR inh,Vif A3G,rRNA inh HTS,rRNA inh HTS OD600,rRNA inh HTS RFP,AF4-AF9 inh
COc1cccc(NC(=O)CN(C)C(C)C(=O)NC(C)c2ccc(Cl)cc2Cl)c1 (stereo not drawn),0.7,·,2.8,·,-6%,-9,-22,2.9,1.0
C[C@@H]1CN([C@H](C)CO)C(=O)c2cc(/C=C/c3ccccc3)cnc2O[C@H]1CN(C)C(=O)c1cccc(F)c1,·,i,·,·,·,-3,-4,10.0,11
CCOC(=O)c1cn2cccnc2n1,0.71,·,0.0,-3,5%,·,·,·,·
CN(C/C=C/C#CC(C)(C)C)Cc1cccc2ccccc12,·,i,-2.9,-3,·,-8,-27,-3.8,8.3
CN(C)NC(=O)c1cccc(Cl)c1,0.7,i,2.1,-6,3%,31,5,-0.5,-0.2
CCCc1ccc(OCc2ccccc2)c2c(=O)cc(C(=O)OCC)oc12,0.66,i,-0.8,20,-5%,-2,19,-3.0,-1.7
O=C(NCc1ccccn1)c1ccc(Cn2cc(C(F)(F)F)ccc2=O)cc1,0.67,i,4.0,-8,-1%,8,6,1.8,0.0
CS(=O)(=O)Nc1ccc(C(=O)NC2CC3CCC2C3)cc1 (stereo not drawn),0.64,·,-6.4,-4,-1%,·,·,·,·
CCc1nc2ccc(C(=O)Nc3ccc(NC(C)=O)cc3)cn2c1N(C)C(=O)Cc1ccccc1,·,i,-0.8,·,·,0,11,-1.5,0.4
CCC(=O)N[C@H]1CC[C@H](CC(=O)NCc2ccccc2F)O[C@H]1CO,·,i,·,·,·,6,11,0.0,-0.6
Cc1ccc(NC(=O)Cn2c(C)csc2=O)cc1,0.68,i,-0.3,·,-9%,0,5,-1.0,-40
CSc1ccccc1NC(=O)CN(C)CC(=O)Nc1ccc(S(=O)(=O)N2CCCC2)cc1,0.71,i,5.0,-1,4%,-1,-11,18,1.4
COc1ccc(S(=O)(=O)Nc2ccc3c(c2)C(=O)N([C@H](C)CO)C[C@@H](C)[C@H](CN(C)S(=O)(=O)c2cccs2)O3)cc1,·,i,·,·,·,-5,5,0.5,0.0
O=C(COC(=O)c1cccnc1Cl)NC1CCCCCC1,0.73,i,-3.4,2,0%,6,5,1.6,-8.5
C[C@@H]1CN([C@@H](C)CO)C(=O)c2cc(NS(=O)(=O)c3ccccc3)ccc2O[C@@H]1CN(C)Cc1ccccc1,·,i,·,·,·,-1,-4,0.2,3.4
CCOC(=O)c1cn(CC)c2ccc(S(=O)(=O)N3CC(C)CC(C)C3)cc2c1=O (stereo not drawn),0.7,·,1.9,·,22%,·,·,·,·
CCc1ccc(C(C)NC(=O)C2CCCO2)cc1 (stereo not drawn),0.68,i,-2.6,-1,·,12,11,-0.1,-2.7
Cc1noc(C)c1NC(=O)N(C)C[C@@H]1Oc2ccc(NS(=O)(=O)c3ccccc3)cc2C(=O)N([C@H](C)CO)C[C@@H]1C,·,i,·,·,·,4,1,-0.7,-3.3
Cc1cccc(N2CC(C(=O)Nc3ccccc3N3CCCC3)CC2=O)c1C (stereo not drawn),0.69,i,1.5,98*,10%,-6,-6,0.9,1.7
CCc1cccc(CC)c1NC(=O)COC(=O)c1cccc(-c2ccc(OC(C)=O)cc2)c1,0.7,i,1.1,5,·,-2,13,7.4,2.3

# The last 4 compounds of the part before are carried over, then new ones follow:
SMILES,Ecoli growth,FGF22 binding,HNF4A DNA FP,ALR inh,Vif A3G,rRNA inh HTS,rRNA inh HTS OD600,rRNA inh HTS RFP,AF4-AF9 inh
CCc1ccc(C(C)NC(=O)C2CCCO2)cc1 (stereo not drawn),0.68,i,-2.6,-1,·,12,11,-0.1,-2.7
Cc1noc(C)c1NC(=O)N(C)C[C@@H]1Oc2ccc(NS(=O)(=O)c3ccccc3)cc2C(=O)N([C@H](C)CO)C[C@@H]1C,·,i,·,·,·,4,1,-0.7,-3.3
Cc1cccc(N2CC(C(=O)Nc3ccccc3N3CCCC3)CC2=O)c1C (stereo not drawn),0.69,i,1.5,98*,10%,-6,-6,0.9,1.7
CCc1cccc(CC)c1NC(=O)COC(=O)c1cccc(-c2ccc(OC(C)=O)cc2)c1,0.7,i,1.1,5,·,-2,13,7.4,2.3
CN(c1ccc(OCC(=O)N2CCCCC2)cc1)S(=O)(=O)c1cccs1,0.72,·,-2.8,-3,2%,·,·,·,·
Cc1cc(F)cc(-c2cc(C(=O)NCc3ccccc3)[nH]n2)c1,·,i,1.1,·,·,-15,-6,1.4,4.0
C[C@H]1CN([C@@H](C)CO)C(=O)Cc2cc(NC(=O)Nc3ccc(C(F)(F)F)cc3)ccc2O[C@@H]1CN(C)C,·,i,·,·,·,2,-3,1.1,3.4
NC(=O)c1c(N)sc(=S)n1CC1CCCO1 (stereo not drawn),0.72,·,0.2,41,-4%,·,·,·,·
C[C@@H]1CN([C@@H](C)CO)C(=O)c2cc(-c3ccccc3)cnc2O[C@@H]1CN(C)C(=O)Cc1ccccn1,·,i,·,·,·,0,-11,-4.3,-1.3
Cn1c(=O)c2c(ncn2CC(=O)Nc2ccc(N3CCOCC3)cc2)n(C)c1=O,0.7,·,9.1,2,28%,·,·,·,·
O=C(N[C@@H]1CC[C@@H](CCn2cc(C3(O)CCCC3)nn2)O[C@H]1CO)c1ccccc1F,·,i,·,·,·,-1,11,-0.1,-2.1
Cc1ccc(CN2CCN(/N=C/c3ccc(O)c(O)c3)CC2)cc1,·,i,-7.7,79*,?,-11,-3,-4.7,15
CC(=O)c1ccc(NC(=O)CSc2nnc(NC(=O)C3CC3)s2)cc1,0.66,i,0.5,-3,·,6,9,2.5,-1.0
O=c1c2c3c(sc2n2c(=S)[nH]nc2n1-c1ccccc1)CCC3,0.69,i,-1.2,24,9%,10,9,-0.8,-3.3
O=C(Nc1ccc2c(c1)OCO2)N[C@@H]1CC[C@@H](CCNC(=O)C2CCCCC2)O[C@@H]1CO,·,i,·,·,·,1,-3,-0.9,-0.3
C/C(CC(=O)Nc1ccc(OCc2ccccc2)cc1)=N\NC(=O)C(=O)Nc1cccc(C)c1,·,·,-1.7,-13,27%,·,·,·,·
CC(C)(C)S(=O)N1Cc2cc(C(=O)N3CCOCC3)nc(-c3cccc(Br)c3)c2[C@H]1CCO (stereo partly drawn),·,i,6.3,·,·,2,17,4.3,6.1
CCCOc1cc(C)c(S(=O)(=O)NC2CC(C)(C)NC(C)(C)C2)cc1C,0.71,·,1.4,-46,·,·,·,·,·
COCC(=O)Nc1ccc2c(c1)[C@@H]1C[C@H](CC(=O)N3CCOCC3)O[C@@H](CO)[C@@H]1O2,·,i,·,·,·,0,13,0.9,-1.8
CC(C)c1ccc(S(=O)(=O)Nc2ccc(-n3cnnn3)cc2)cc1,0.62,i,2.0,·,3%,-25,-32,-2.2,-15
CN(CC(=O)Nc1cccc(F)c1)C(=O)c1cccc(S(=O)(=O)N2CCN(Cc3ccccc3)CC2)c1,·,i,5.2,·,-5%,-20,-47,10,11
O=C(C[C@H]1CC[C@H](NC(=O)CN2CCOCC2)[C@@H](CO)O1)NC1CCC1,·,i,·,·,·,1,10,0.7,-1.8
O=C(c1cccc(S(=O)(=O)N2CCOCC2)c1)N1CCN(c2ccccc2)CC1,0.67,i,0.5,37,-10%,11,5,2.9,-15
Cc1ccc2[nH]cc(S(=O)(=O)c3ccc(F)cc3)c(=O)c2c1,0.69,i,2.2,-4,3%,1,5,3.8,-1.5
CCCCOc1ccc(SCCCN2CCOCC2)cc1,0.64,i,1.2,·,-10%,-14,-12,-2.1,2.5
O=C(O)c1ccccc1/C=N/NC(=O)C1CCCC1,·,i,0.2,-21,2%,22,16,5.9,-6.1
CC(=O)NC(c1ccc(F)c(F)c1)c1nc(-c2ccncc2)cs1 (stereo not drawn),·,i,2.9,·,·,-25,-38,-13,2.8
O=C(c1noc2c1CCCC2)N1CCc2c([nH]c3ccccc23)C1c1ccccn1 (stereo not drawn),0.66,i,0.7,-5,0%,-16,-22,1.3,11
C=CCn1c(=O)n(CCOC)c(=O)c2sc3ccccc3c21,0.79,i,-1.8,0,-2%,-1,-1,-1.0,-2.9
Cc1ccc(-n2c(Cc3cccs3)nnc2SCC(N)=O)cc1,0.73,i,1.7,-9,0%,7,-2,-3.6,-0.2
C=CCn1c(NCc2ccc(N(C)C)cc2)nc2ccccc21,0.7,·,1.3,99*,-3%,·,·,·,·
c1cncc(-c2ccc3[nH]ccc3c2)c1,0.67,i,1.7,-3,·,-1,-11,-6.5,-9.7
Cc1ccc(S(=O)(=O)N(C)C[C@@H]2Oc3ncc(-c4ccncc4)cc3C(=O)N([C@@H](C)CO)C[C@H]2C)cc1,·,i,·,·,·,-6,0,0.6,-2.8
O=C(c1ccc(OC2CCN(Cc3ccccc3O)CC2)cc1)N1CCCCC1,0.7,i,4.6,1,24%,7,3,1.4,0.5
O=C(C1CC1)N1CCCCN2[C@H](CO)[C@H](c3ccc(C#CC4CCCC4)cc3)[C@@H]2C1,·,i,·,·,·,-54,-71,-3.7,2.6
COc1ccccc1NS(=O)(=O)c1ccc(C(=O)NCC(c2ccco2)N(C)C)cc1 (stereo not drawn),0.72,i,-3.3,0,1%,-1,5,-2.7,2.2
Cc1cc(C)nc(SCCC(=O)Nc2ccccc2)n1,0.7,·,-0.7,-2,0%,2,7,-7.3,1.1
CCOC(=O)C1=C(c2ccc(OC)cc2)OC(N)=C(C#N)C1c1cccnc1 (stereo not drawn),0.71,i,-5.4,-7,-11%,-16,-18,-2.5,-1.0
CC(C)NC(=O)N(C)C[C@@H]1Oc2ccc(NC(=O)Nc3ccc(F)cc3)cc2C(=O)N([C@@H](C)CO)C[C@@H]1C,·,i,·,·,·,0,1,-1.3,-0.6
CCOC(=O)c1cc(C)nc(SC)c1C#N,0.69,i,0.6,-5,1%,11,11,1.3,1.5
COc1cc(OC)cc(-c2c(C#Cc3ccsc3)c3cc(-c4ccc5c(c4)OCCO5)ccc3n2C)c1,0.65,i,-0.5,-6,·,11,8,-3.2,1.4
CCCNC(=O)[C@H]1N[C@H]2c3ccc(C4=CCCCC4)c(=O)n3C[C@H]2[C@@H]1CO,·,i,·,·,·,0,4,-8.0,1.6
C=CCc1c(C)nc2c(-c3ccccc3)cnn2c1N1CCOCC1,0.69,i,-1.2,-8,-3%,12,7,1.9,-4.8
Cc1noc(C)c1NC(=O)Nc1ccc2c(c1)CC(=O)N([C@@H](C)CO)C[C@@H](C)[C@@H](CN(C)CC1CCCCC1)O2,·,i,·,·,·,2,-3,0.3,-2.4
COc1ccc(-n2c(=O)[nH]cc(C(=O)Nc3ccccc3)c2=O)cc1,0.75,i,5.9,-16,-2%,-6,-7,0.7,-0.2
COc1ccccc1NC(=O)c1ccc(NS(=O)(=O)c2ccc(F)c(Cl)c2)cc1,0.69,·,0.6,-2,4%,·,·,·,·
O=C1c2cccc([N+](=O)[O-])c2C(=O)N1C1CCCCC1,0.67,i,0.0,98*,10%,7,9,0.4,1.9
O=C(CSc1nc2ccccc2nc1SCC(=O)N1CCCCC1)N1CCCCC1,0.7,·,2.0,·,?,·,·,·,·
O=C(CCN1CCc2ccccc21)c1ccc2c(c1)OCCO2,0.7,·,-1.6,-27,2%,·,·,·,·
Cc1ccc(-c2cc3nc(-c4ccccc4)cc(N4CCOCC4)n3n2)cc1,0.81,·,6.6,·,6%,·,·,·,·
CCOC(=O)c1c(N)sc(C(=O)N(C)C)c1CN1CCOCC1,0.67,i,-1.5,-2,-3%,10,7,-1.3,-3.2
Cc1nn(C)cc1CNC(=O)c1ccc(Br)o1,0.75,·,-0.8,-7,3%,·,·,·,·
